GCN5L2 inh = inhibitors of human GCN5L2 histone acetyltransferase; GCN5L2 HAT assay, ThioGlo1 CoA-SH fluorescence; Potency, µM (highest dose often 58.9 µM), inactives show top-dose activity change, negative = inhibition, usual class: inhibitors; actives 0.21% (n = 390,000)
Target sequence (Q92830 whole entry, looked up): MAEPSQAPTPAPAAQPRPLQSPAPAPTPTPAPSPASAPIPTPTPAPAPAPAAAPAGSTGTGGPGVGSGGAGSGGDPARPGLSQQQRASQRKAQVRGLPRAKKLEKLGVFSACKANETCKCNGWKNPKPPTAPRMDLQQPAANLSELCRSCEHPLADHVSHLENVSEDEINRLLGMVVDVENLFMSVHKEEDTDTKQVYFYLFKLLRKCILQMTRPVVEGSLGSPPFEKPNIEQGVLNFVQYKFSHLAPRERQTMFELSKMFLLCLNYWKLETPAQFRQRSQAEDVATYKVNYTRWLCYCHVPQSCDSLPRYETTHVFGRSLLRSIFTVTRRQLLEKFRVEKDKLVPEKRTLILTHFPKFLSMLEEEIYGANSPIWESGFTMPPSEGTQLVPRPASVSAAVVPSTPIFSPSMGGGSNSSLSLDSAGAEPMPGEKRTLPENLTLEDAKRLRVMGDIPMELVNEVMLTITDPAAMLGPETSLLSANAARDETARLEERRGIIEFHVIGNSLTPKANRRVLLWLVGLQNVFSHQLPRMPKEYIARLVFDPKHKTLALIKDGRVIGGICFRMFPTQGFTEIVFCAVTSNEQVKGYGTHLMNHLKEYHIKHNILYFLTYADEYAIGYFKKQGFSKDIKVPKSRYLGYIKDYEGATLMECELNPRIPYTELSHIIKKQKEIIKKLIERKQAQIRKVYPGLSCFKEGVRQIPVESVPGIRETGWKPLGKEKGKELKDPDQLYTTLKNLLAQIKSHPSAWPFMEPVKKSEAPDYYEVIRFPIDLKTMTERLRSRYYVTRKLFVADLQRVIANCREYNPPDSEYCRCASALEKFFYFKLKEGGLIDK
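Compounds, pin-transferred from DMSO stocks, meet 20nM GCN5L2 for 15 min before the reaction begins with H3(1-25) peptide (75uM) and acetyl-CoA (70uM). Thiol-reactive ThioGlo1 reports CoA release over 20 min at room temperature.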
N370S GC mod = inhibits or activates N370S mutant glucocerebrosidase; P04062; Potency, µM (doses to about 59.4 µM), for the others: at the top dose activity change, negative = inhibition, hits mostly inhibitors; actives 0.092% (n = 330,000); N370S GC spleen homogenate, 4MU-glucoside fluorescence;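 also: 0% = full enzyme activity and -100% = no enzyme basal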
Active calls of the source: *; ? = inconclusive; nt = no result given; [ ] = another dose, or the depositor's remark. Calls follow the shape of the dose curve; as a rule, active = well fitted curve in the direction sought with a large enough effect; inconclusive = small, poorly fitted or top-dose-only effect, or another doubt; inactive = no such curve, though single readings can be large; an effect the other way counts as inactive or inconclusive. Unless noted, % is scaled to controls: 0 for no effect and ±100 for the full control effect; potency is read from the fitted curve at half-maximal effect. This is a subset, and most or all hits are left out here.

Preview:
GCN5L2 inh	N370S GC mod	SMILES
2.0%	-4.5%	CCN(CC)CCNC(=O)c1cn(CC)c2ccc(S(=O)(=O)N(C)C)cc2c1=O
-10.8%	6.3%	CC1(C)C(c2cccs2)=[N+]([O-])C2(CCCCC2=O)N1O (stereo not drawn)
-3.4%	-3.4%	Oc1ccc(-c2cn3cc(C(F)(F)F)ccc3n2)cc1
-13.5%	nt	Cc1cc(Br)ccc1NC(=O)c1sc2nc3n(c(=O)c2c1C)CCCC3
-0.1%	1.2%	CC(C)[N+]1=C2C=CC=CC=C2SC12C([N+](=O)[O-])=CC(=[N+]([O-])[O-])C=C2[N+](=O)[O-] (stereo not drawn)
-13.5%	6.7%	CC(=O)Nc1ccc(S(=O)(=O)NCCc2ccc(F)cc2)cc1

The list itself, from the first entry:
GCN5L2 inh	N370S GC mod	SMILES
2.0%	-4.5%	CCN(CC)CCNC(=O)c1cn(CC)c2ccc(S(=O)(=O)N(C)C)cc2c1=O
-10.8%	6.3%	CC1(C)C(c2cccs2)=[N+]([O-])C2(CCCCC2=O)N1O (stereo not drawn)
-3.4%	-3.4%	Oc1ccc(-c2cn3cc(C(F)(F)F)ccc3n2)cc1
-13.5%	nt	Cc1cc(Br)ccc1NC(=O)c1sc2nc3n(c(=O)c2c1C)CCCC3
-0.1%	1.2%	CC(C)[N+]1=C2C=CC=CC=C2SC12C([N+](=O)[O-])=CC(=[N+]([O-])[O-])C=C2[N+](=O)[O-] (stereo not drawn)
-13.5%	6.7%	CC(=O)Nc1ccc(S(=O)(=O)NCCc2ccc(F)cc2)cc1
-13.8%	-11.3%	COc1ccc(-c2nc(-c3ccncc3)no2)c(OC)c1
-5.3%	?	CC(NC(=O)COc1ccccc1Cl)c1ccccc1 (stereo not drawn)
0.6%	-8.1%	Cc1ccc(S(=O)(=O)CCC(=O)OCC(=O)N2CCN(S(=O)(=O)c3ccc(Cl)cc3)CC2)cc1
-3.3%	-5.8%	N#C/C(=C\c1ccc[nH]1)C(=O)N1CCCCC1
-0.8%	-0.2%	COc1cc(Cl)ccc1OCc1cc(C(=O)N(C)Cc2cn(C)nc2C)no1
1.3%	nt	COc1ccc(OC)c(-c2csc(NC(=O)COC(=O)C3CC3)n2)c1
17.5%	-9.9%	CN1CCN(C(=O)c2cccn(Cc3c(Cl)cccc3Cl)c2=O)CC1
-4.3%	-16.0%	O=C(NC1CCCN(Cc2ccc(Cl)cc2)C1)c1c(F)ccc(F)c1F (stereo not drawn)
27.1%	19.9%	Cc1cc(-c2cc(C(=O)NC3CCCC3)on2)nc(NC2CCCC2)n1
0.1%	13.0%	COc1ccccc1-n1cnc2cc(NCc3cccs3)ccc21
0.0%	nt	C[C@H](CO)N1C[C@H](C)[C@@H](CN(C)S(=O)(=O)c2ccccc2)Oc2ccc(NC(=O)C3CCCCC3)cc2C1=O
-7.6%	-2.9%	CC1=C(C(=O)Nc2ccccn2)C(c2ccc3c(c2)OCO3)C2=C(CC(C)(C)CC2=O)N1 (stereo not drawn)
-1.0%	16.0%	COc1ccc(C(=O)NCc2nnc(SCCOc3ccccc3)n2C)cc1
3.8%	0.7%	Cc1ccc(Nc2nc(N)nc(CSc3nnc(C)s3)n2)cc1
-8.5%	9.4%	CCOC(=O)N/N=C/c1ccc(Oc2ccccc2)cc1
-1.0%	-9.2%	CCc1cc(=O)[nH]c(SCC(=O)Nc2ccc3c(c2)OCCO3)n1
-5.6%	-11.1%	CN1CCN(C(=S)c2ccc(-c3cccc([N+](=O)[O-])c3)o2)CC1
1.3%	16.4%	Cc1cc(C)nc(NC=C2C(=O)OC(C)(C)OC2=O)n1
-4.5%	0.0%	COc1ccc(N2CCN(S(=O)(=O)CCNC(=O)COc3ccc(Cl)cc3)CC2)cc1
-5.0%	0.2%	COCCn1c(-c2ccc(OC)cc2)cnc1N
-3.7%	4.3%	Nc1ccc2c(c1)C(=O)N(CCCCCC(=O)O)C2
-13.8%	-9.2%	O=S(=O)(c1cnccc1N1CCN(/N=C/c2ccc(Br)cc2)CC1)N1CCCCC1
-2.8%	-9.8%	COc1cccc(NC(=O)c2ccc3c(c2)N(CC(=O)N2CCOCC2)C(=O)C(C)(C)O3)c1
-3.9%	2.1%	O=C(Nc1ccc(S(=O)(=O)N2CCCC2)cc1)C1CCCN1C(=O)c1cccs1 (stereo not drawn)
-12.0%	-6.6%	O=C(OCc1cnc(Cl)s1)c1ccccc1Cl
-2.0%	-28.1%	CCC(=O)N1CCc2cc(S(=O)(=O)NCCC(=O)N3CCN(c4cccc(C)c4)C(C)C3)ccc21 (stereo not drawn)
-1.7%	nt	COc1ccc(C(=O)NCc2cn3ccc(C)cc3n2)cc1
0.2%	-2.2%	COc1ccc(CCNC(=O)CSc2nncs2)cc1
-13.8%	-8.6%	COc1ccc(CCn2nnnc2C(c2ccc(Cl)cc2)N2CCN(C)CC2)cc1OC (stereo not drawn)
-0.7%	nt	CCc1cccc(CC)c1NC(=O)CN(C)S(=O)(=O)c1ccc2c(c1)n(C)c(=O)c(=O)n2C
-9.8%	-20.4%	CC1(C(=O)Nc2ccc3c(c2)OCCO3)CC1(Cl)Cl (stereo not drawn)
-4.3%	12.2%	Cc1nc2ccccn2c1C(=O)NC1CCCCC1
-0.5%	22.6%	O=C(COc1ccccc1)NC1CCCc2ccccc21 (stereo not drawn)
3.3%	-0.3%	CCO[C@@H]1OC(C(=O)Nc2ccccc2)=C[C@H](C2CC2)[C@H]1CCCO
1.7%	-7.5%	CC(NC(=S)NC1CCCCC1)C(c1cccs1)N1CCOCC1 (stereo not drawn)
2.4%	-9.1%	c1ccc(C[C@H]2CNCCN2CC2CCCCC2)cc1
-4.8%	5.9%	O=C(Nn1cnnc1)c1ccccc1CCc1ccccc1
1.6%	1.0%	Cc1ccccc1OCC(=O)NCCCNC(=O)c1ccncc1
-6.8%	-5.1%	N#CC1CC(c2ccc([N+](=O)[O-])cc2)=NN1c1ccc([N+](=O)[O-])cc1 (stereo not drawn)
-14.8%	nt	Cc1ccc(NS(=O)(=O)c2ccc3[nH]c4c(c3c2)CCCC4)cc1N(C)C
0.1%	1.5%	N#C/C(=N\Nc1cccc(Cl)c1)C(=O)c1ccccc1
-1.8%	-3.3%	O=C(c1cccc(C(F)(F)F)c1)N1CCC2(CC1)NCCc1[nH]cnc12
-7.3%	-3.7%	O=C(c1c[nH]c2ccccc12)C(F)(F)F
-3.3%	2.5%	O=C(COC(=O)c1ccccc1Oc1ccccc1)NC1CC1
-16.8%	-3.9%	O=C(Nc1nnc(SCC(=O)N2CCCC2)s1)C1CC(=O)N(c2ccccc2)C1 (stereo not drawn)
-20.8%	2.7%	CC1(c2ccccc2)NC(=O)N(CC(=O)Nc2cccc(C#N)c2)C1=O (stereo not drawn)
-0.8%	5.3%	O=C(c1ccco1)N1CCC(c2ccccc2)C1 (stereo not drawn)
-17.7%	0.7%	CCOC(=O)c1cc(CC)sc1NC(=O)CN1CCN(C(=O)C2CCCO2)CC1 (stereo not drawn)
-0.3%	5.1%	CC(C)OC(=O)C(NC(=O)c1ccccc1)=C1CCCCC1
-10.7%	13.3%	CC1CCCN(c2ccc(C(=O)NCc3ccccc3)cn2)C1 (stereo not drawn)
0.3%	-0.2%	CCCCN(CCCNC(=O)Cn1ncc2ccsc2c1=O)Cc1ccccc1
-5.1%	nt	COc1cc(C(=O)N2CCC(c3ccncc3)CC2)cc(OC)c1OC
-1.7%	nt	C[C@@H](CSc1ccc(Br)cc1)CN1CC[C@H](O)CCC1=O
1.5%	-5.9%	CCNC(=S)NNC(=O)c1nn(C)c(C)c1Cl

Next entries follow.
GCN5L2 inh	N370S GC mod	SMILES
0.7%	9.2%	CCOC(=O)c1c(C)n(C)c2ccc(OC)c(NC(=O)CN3CCC4(CC3)OCCO4)c12
2.8%	-1.5%	CCn1cc(CNC(=O)c2cc(-c3ccccc3OC)nc3ccccc23)c(C)n1
-9.9%	-2.6%	COc1cc(OC)c(OC)cc1CNCc1ccc2c(c1)OCO2
-4.7%	1.5%	CCNS(=O)(=O)c1ccc(CCC(=O)NCc2ccc3c(c2)OCO3)cc1
?	0.4%	Cc1cc2ccccc2n1CCNC(=O)C(C)Oc1ccccc1 (stereo not drawn)
-6.2%	4.3%	Cc1nn2cc(-c3cccc(Cl)c3)cnc2c1Cl
17.5%	11.5%	CCOC(=O)c1c(NC(=O)CSc2ccccc2C(=O)O)sc(C)c1C
-0.2%	-1.0%	Cc1nc(Sc2ccccc2)c(C#N)c(C)c1[N+](=O)[O-]
-2.4%	7.1%	COc1ccc(-c2nnc(SCC(=O)c3ccc(C)o3)o2)cc1
-6.4%	-2.4%	COc1cc2ccccc2c2c1CCCC2=O
-14.8%	-5.7%	O=C(CSc1nnc(NC(=O)c2ccccc2)s1)NCc1ccco1
-0.4%	2.6%	CSCCC(NC(=O)c1cc(C(C)(C)C)oc1C)C(=O)O (stereo not drawn)
-8.2%	-8.9%	O=C(NCC(=O)N(c1ccc(F)cc1)C(C(=O)NC1CCCCC1)c1cccnc1)c1ccco1 (stereo not drawn)
-0.4%	4.2%	CC(C)Cc1nnc(NC(=O)CCNC(=O)c2ccco2)s1
-1.0%	1.1%	O=C(NCCCN1CCN(c2cccc(Cl)c2)CC1)c1cccc(N2CCCC2=O)c1

2 entries from above, field by field:
COc1cc(OC)c(OC)cc1CNCc1ccc2c(c1)OCO2
  GCN5L2 inh = -9.9%
  N370S GC mod = -2.6%
CCNS(=O)(=O)c1ccc(CCC(=O)NCc2ccc3c(c2)OCO3)cc1
  GCN5L2 inh = -4.7%
  N370S GC mod = 1.5%

(listing goes on)
GCN5L2 inh	N370S GC mod	SMILES
-4.8%	-4.1%	Cc1ccc(NC(=O)c2ccc(C(=O)c3ccccc3)cc2)nc1
-9.0%	-3.3%	Cc1sc(NC(=O)C2CCCC2)c(C#N)c1C
-8.3%	9.6%	O=C(C1COc2ccccc2O1)N1CCN(c2ccccc2)CC1 (stereo not drawn)
-25.3%	3.7%	Cc1cc2c(NCc3ccccc3)ncnc2s1
0.0%	-5.5%	CCCCn1c(N)c(N(CC(C)C)C(=O)C2=NN(c3cc(C)ccc3C)C(=O)CC2)c(=O)[nH]c1=O
-13.2%	-1.2%	CCOC(=O)C1=C(C)Nc2sc(C(=O)c3ccc(OC)cc3)c(N)c2C1c1ccc(C(=O)OC)cc1 (stereo not drawn)
-0.5%	1.2%	COc1ccc(NC(=O)CN(C)C(=O)CNC(=O)c2ccc3c(c2)OCO3)cc1
-9.3%	4.1%	Cn1c(C(=O)NCc2ccc3c(c2)OCO3)cc2sccc21
-0.8%	nt	CCc1cccc(CC)c1NC(=O)Cn1c(=O)c(-c2cc(C)ccc2NC(C)=O)nc2ccccc21
0.9%	-8.0%	CN(CCC1CCCCO1)C(=O)CCc1nnc(CCc2ccccc2)o1 (stereo not drawn)
-5.0%	-10.0%	CCc1nn(C(C)C(=O)NCCc2ccccc2)c(=O)c2cc3occc3n12 (stereo not drawn)
-7.0%	-5.4%	CCOC(=O)COc1cccc2c(=O)n(CC(=O)NCc3ccc(F)cc3)ccc12
0.6%	-12.9%	COc1ccc(NC(=O)CSc2nccn2-c2ccccc2)cc1
-9.7%[0.501 µM]	?	Cc1c(C)c2cc(Cl)c(O)c(CN3CCCCC3)c2oc1=O
-1.3%	-4.3%	COc1ccc(COC(=O)C2=C(C)NC(=O)NC2c2cc(Br)c(O)c(OC)c2)cc1 (stereo not drawn)

In another format: entries from further up.
structure,GCN5L2 inh,N370S GC mod
CCCCn1c(N)c(N(CC(C)C)C(=O)C2=NN(c3cc(C)ccc3C)C(=O)CC2)c(=O)[nH]c1=O,0.0%,-5.5%
CCOC(=O)C1=C(C)Nc2sc(C(=O)c3ccc(OC)cc3)c(N)c2C1c1ccc(C(=O)OC)cc1 (stereo not drawn),-13.2%,-1.2%
COc1ccc(NC(=O)CN(C)C(=O)CNC(=O)c2ccc3c(c2)OCO3)cc1,-0.5%,1.2%

(further entries)
GCN5L2 inh	N370S GC mod	SMILES
-2.8%	5.0%	CC(O)c1nc2ccccc2n1CC(=O)Nc1ccc2c(c1)OCCO2 (stereo not drawn)
-18.5%	-14.3%	CC(=O)Nc1cccc(NC(=O)Nc2cccc3ccccc23)c1
0.3%	-8.6%	Nc1nnc(SCC(=O)c2ccccc2)s1
0.9%	6.5%	CC(Sc1nncn1C)C(=O)Nc1cc(C(F)(F)F)ccc1N1CCOCC1 (stereo not drawn)
0.2%	15.8%	O=C(NC1CCCC1)c1ncn[nH]1
-2.7%	-9.4%	CC(C)(C)NC(=O)C(c1ccccc1)N(C(=O)CNC(=O)c1cccs1)c1cccnc1 (stereo not drawn)
39.0%[activator]	0.1%	O=C(NC(NC(=S)N1CCOCC1)C(Cl)(Cl)Cl)c1ccc(Cl)cc1 (stereo not drawn)
0.8%	-26.5%	CCCCn1c(=N)n(CCOc2ccc(C)cc2)c2ccccc21
-19.4%	-4.6%	O=C(CSC1CN(C(c2ccccc2)c2ccccc2)C1)N/N=C/c1ccccc1
0.6%	nt	O=C(COC(=O)c1ccc2c(c1)OCO2)Nc1ccccc1OC(F)F
-4.5%	5.8%	Cc1nnc2nc(-c3ccccc3)nc(-c3ccccc3)n12
-14.0%	3.3%	CCN(Cc1ccccc1)S(=O)(=O)c1ccc(F)cc1
